# Source: PubChem (National Center for Advancing Translational Sciences (NCATS))
# NPR1 antag = blocks ANP-stimulated signaling of human Npr1 receptor | P16066 | HEK293 hNpr1 GloSensor cGMP, ANP-stimulated luminescence | Potency, µM (highest dose often 46.3 µM), for the others: at the top dose activity change, negative = inhibition, usual class: inhibitors | 76,000 compounds, 1.6% hits; active = well fitted inhibition curve with a large enough effect; inconclusive = small, poorly fitted or top-dose-only effect; inactive = no such curve, though single readings can be large or run the other way;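 further: nearly all actives have a fitted effect of over 60% in size; nearly all hits also lower the signal before the agonist is added; a reference antagonist and vehicle were the controls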
# Target sequence (P16066 whole entry, looked up): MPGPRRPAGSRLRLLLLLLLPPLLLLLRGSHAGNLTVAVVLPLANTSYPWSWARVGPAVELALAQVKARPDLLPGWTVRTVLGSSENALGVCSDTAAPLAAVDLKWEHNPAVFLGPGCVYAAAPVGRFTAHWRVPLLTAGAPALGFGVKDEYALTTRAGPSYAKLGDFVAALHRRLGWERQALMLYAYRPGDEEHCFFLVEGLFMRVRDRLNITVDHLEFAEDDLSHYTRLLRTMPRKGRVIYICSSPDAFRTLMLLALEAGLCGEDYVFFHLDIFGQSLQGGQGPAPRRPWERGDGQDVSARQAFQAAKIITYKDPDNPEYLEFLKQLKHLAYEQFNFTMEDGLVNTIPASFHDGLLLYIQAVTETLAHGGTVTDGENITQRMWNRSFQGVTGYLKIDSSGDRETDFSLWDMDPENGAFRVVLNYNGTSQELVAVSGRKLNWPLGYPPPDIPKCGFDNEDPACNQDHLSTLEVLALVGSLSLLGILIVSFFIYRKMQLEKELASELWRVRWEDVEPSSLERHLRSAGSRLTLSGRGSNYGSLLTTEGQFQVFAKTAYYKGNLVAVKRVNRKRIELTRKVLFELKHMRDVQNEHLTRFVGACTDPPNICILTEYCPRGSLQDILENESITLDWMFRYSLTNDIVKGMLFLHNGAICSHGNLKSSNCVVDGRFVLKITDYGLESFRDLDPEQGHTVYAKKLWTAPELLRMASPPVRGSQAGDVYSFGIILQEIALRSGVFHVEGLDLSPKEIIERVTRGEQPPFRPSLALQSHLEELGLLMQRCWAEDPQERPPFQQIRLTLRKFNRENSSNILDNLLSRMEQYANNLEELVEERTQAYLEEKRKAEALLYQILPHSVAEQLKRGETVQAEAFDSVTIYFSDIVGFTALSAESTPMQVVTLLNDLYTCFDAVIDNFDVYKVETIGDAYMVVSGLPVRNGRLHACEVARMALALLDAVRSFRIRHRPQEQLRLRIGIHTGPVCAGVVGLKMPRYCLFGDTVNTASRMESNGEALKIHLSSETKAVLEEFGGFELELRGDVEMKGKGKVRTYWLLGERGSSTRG
#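 HEK293 cells stably expressing human Npr1 and cGMP GloSensor pGS-40F, loaded 2 h with 2% GloSensor reagent, given compound 30 min at room temperature. Luminescence read before and 20 min after 0.1 nM hNppA.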
# * = called active by the depositor; u = inconclusive; [ ] = dose if it differs, or a comment. On the % scale 0 is the no-effect control and ±100 the full control effect; potency means the concentration at half of the fitted maximal effect. Only part of the results is shown; count on the stated rates, not on these rows.
SMILES,NPR1 antag
Cc1nc(-c2cccc(NC(=O)N3CCCC3c3c(C)noc3C)c2)cs1 (stereo unspecified),1.6%
CC(=O)Nc1ccc(S(=O)(=O)N[C@H]2CO[C@H]3[C@@H]2OC[C@@H]3n2nnnc2Oc2cccc(N3CCOCC3)c2)cc1,1.5%
Cc1cccc(OCC(=O)c2ccc3c(c2)N(C(C)C(=O)Nc2ccccc2)C(=O)CO3)c1C (stereo unspecified),4.2%
O=C(N[C@@H]1C[C@H](Cn2cc(CN3CCS(=O)(=O)CC3)nn2)[C@@H](O)[C@H]1O)c1cnccn1,-10.5%
CCC(=O)N1CCOc2ccc(CN3CCc4ccccc4C3)cc2C1,2.2%
O=C(NCCCc1ccccc1)c1n[nH]c2c1CN(C(=O)c1c(F)cccc1F)CC2,0.0%
CCCNC(=O)CN1C(=O)NC(c2ccccc2OC)C2=C1COC2=O (stereo unspecified),-0.8%
CCN(CC)c1ncccc1CNC(=O)c1ncoc1C1CC1,-1.2%
CN(Cc1cnccn1)C(=O)CC(c1ccccc1)c1ccc2c(c1)OCO2 (stereo unspecified),-22.0%
CN(C)C(=O)C(C)(C)Oc1nn(Cc2cccc(Cl)c2)c2ccccc12,-9.6%[70.6 µM]
CCn1cc(S(=O)(=O)N2CCCC(Cc3noc(-c4cccnc4)n3)C2)cn1 (stereo unspecified),2.4%
COC[C@@H]1CN(Cc2cccc(OC)c2OC)C[C@H]1c1ccccn1,-7.1%
COc1cc(Cl)ccc1C(=O)N[C@@H]1CN(S(C)(=O)=O)C[C@H]1CN(C)C,2.7%
O=C1Nc2ccccc2C12CCN([S+](=O)([O-])c1ccsc1)CC2,-28.3%
Cc1nnc(-c2cc(-c3cccnc3)ccn2)n1C1CCCCC1,4.7%[70.6 µM]
CCNC(=O)N1CC(C(=O)NCc2ccco2)CC(c2ccc(OC)c(OC)c2)C1 (stereo unspecified),4.9%
CN(c1ccccc1)c1ccc2nnc(-c3cc(C(=O)Nc4ccccn4)ccn3)n2n1,2.8%[70.6 µM]
O=[N+]([O-])c1ccccc1CN1C[C@H](O)C[C@H]1c1nc(Cc2ccc(F)cc2Cl)no1,0.7%[70.6 µM]
CCn1nccc1C(=O)N1C[C@@H]2CCCN3CCC[C@@H]([C@H]23)[C@H]1CCCC(=O)Nc1ccccc1,1.9%
COc1ccc(CNC(=O)C(N)c2c(C)n[nH]c2C)c(F)c1F (stereo unspecified),0.0%
CN(CC1CCOC1)C(=O)Nc1ccc(Cl)cc1F (stereo unspecified),6.1%
CC(=O)N(C1CCOCC1)C1CCN(C(=O)Nc2ccccc2)CC1,6.7%
COc1ccccc1C(=O)N1CCC(Oc2ncccc2C(=O)N2CCCCC2)C1 (stereo unspecified),-1.2%
O=C(CCCc1nc2ccccc2s1)N1CCc2c(nc3cc(-c4ccccc4)[nH]n3c2=O)C1,-3.6%
CCOC(=O)CNC(=O)N1CCC(N2C(=O)C3(CCCCC3)C2c2ccncc2)CC1 (stereo unspecified),1.1%

# Four structures already listed, ordered by molar mass, smallest number first.
SMILES,NPR1 antag
CN(C)C(=O)C(C)(C)Oc1nn(Cc2cccc(Cl)c2)c2ccccc12,-9.6%[70.6 µM]
CN(Cc1cnccn1)C(=O)CC(c1ccccc1)c1ccc2c(c1)OCO2 (stereo unspecified),-22.0%
O=C(N[C@@H]1C[C@H](Cn2cc(CN3CCS(=O)(=O)CC3)nn2)[C@@H](O)[C@H]1O)c1cnccn1,-10.5%
CC(=O)Nc1ccc(S(=O)(=O)N[C@H]2CO[C@H]3[C@@H]2OC[C@@H]3n2nnnc2Oc2cccc(N3CCOCC3)c2)cc1,1.5%

# Continued.
SMILES,NPR1 antag
COC(=O)[C@H](NC(=O)C1=C[C@@H](NC(=O)Nc2cccc(F)c2)[C@@H](O)[C@H](O)C1)C(C)C,-9.9%[70.6 µM]
Cn1cc2c3c(cccc31)CN(C(=O)C1CC1)CC2,1.8%
C[C@H]1[C@@H]2[C@@H](O)C([C@H](C)C(=O)NCCN3CCOCC3)CC[C@@]2(C)CC[C@@H]1NC(=O)CC(C)(C)C (stereo partly specified),2.6%
CN1C(=O)C2(CCN(C(=O)CCCS(N)(=O)=O)CC2)c2ccccc21,0.5%
COC1C(=O)N(C2CCN(Cc3cn(C)c4ccccc34)CC2)C12CCOCC2 (stereo unspecified),3.7%
Cc1ccc(S(=O)(=O)N2CCN(C3CCN(Cc4ccccn4)C3=O)CC2)cc1F (stereo unspecified),0.0%
CN1CCC(C(=O)N2CCC3(CC2)OC(=O)N(Cc2ccccc2F)C3(C)c2ccccc2)CC1 (stereo unspecified),-7.5%
COCC1CN(C(C)=O)CC12CCN(C(=O)COc1ccccc1)CC2 (stereo unspecified),5.3%
CC(=O)N(C1CC1)C1CCOC2(CCN(C(=O)Nc3ccccc3F)CC2)C1 (stereo unspecified),-12.6%
CC(C)(N)C(=O)N1CCN(c2nc(-c3ccccc3)nc3c2CCC3)CC1,-0.6%
O=S(=O)(c1cc(F)cc(F)c1)N1CCC(C2CCNC2)CC1 (stereo unspecified),-0.2%
Cc1ccc(C(=O)N2CCc3nc(C(C)C)nc(-c4ccc(O)cc4)c3C2)cc1,6.5%
Cc1occc1C(=O)N1CCC(C2CCN(c3ncccn3)CC2)C1 (stereo unspecified),0.4%
O=C(NCC1CCCCC1)C1CCc2nc(N3CCN(C(=O)C4CCC4)CC3)sc2C1 (stereo unspecified),7.6%
CC1Oc2ccc(NS(=O)(=O)c3ccc(F)cc3)cc2CN(Cc2ccc(F)cc2)C1=O (stereo unspecified),-22.9%
CC(=O)N1CCC(NC[C@H]2COCc3nc4ccccc4n32)CC1,5.8%[70.6 µM]
O=C(Cc1ccsc1)N1CCC(n2cc(-c3nc(-c4ccccc4)no3)nn2)CC1,-27.1%
Cn1ncc(N2CCC(C(=O)N3CCCCC3)C2)cc1=O (stereo unspecified),5.3%
O=C(NCc1ccc(F)cc1)N1CCCC(Cc2noc(-c3cccnc3)n2)C1 (stereo unspecified),-4.6%
CCN1c2cc(C(=O)NCc3cc(F)cc(F)c3)ccc2C(=O)N2CCCCCC21 (stereo unspecified),-19.2%
COc1cc(CN2CCN(C)C(C(=O)O)C2)c(Cl)cc1OC(C)C (stereo unspecified),3.6%
CN1CCN(C(=O)[C@@H]2CCC[C@@H](NCc3ccc(F)cc3)CN(C)C(=O)C2)CC1,1.6%[70.6 µM]
COCC(=O)N[C@@H]1CN(Cc2ccc(F)c(OC)c2)C[C@H]1CO,-2.7%
COc1ccccc1CN1CC[C@@H](CO)N(C)c2nc(C)ccc2C1,-11.7%[70.6 µM]
CCCNC(=O)C1(c2ccc(NS(C)(=O)=O)cc2)CCCCC1,3.2%

# Structural class: the entries above with a Cl atom
SMILES,NPR1 antag
CN(C)C(=O)C(C)(C)Oc1nn(Cc2cccc(Cl)c2)c2ccccc12,-9.6%[70.6 µM]
COc1cc(Cl)ccc1C(=O)N[C@@H]1CN(S(C)(=O)=O)C[C@H]1CN(C)C,2.7%
O=[N+]([O-])c1ccccc1CN1C[C@H](O)C[C@H]1c1nc(Cc2ccc(F)cc2Cl)no1,0.7%[70.6 µM]
CN(CC1CCOC1)C(=O)Nc1ccc(Cl)cc1F (stereo unspecified),6.1%
COc1cc(CN2CCN(C)C(C(=O)O)C2)c(Cl)cc1OC(C)C (stereo unspecified),3.6%

# (cont.)
SMILES,NPR1 antag
O=C(N1CCCC(Nc2ccc(F)cc2)C1)C12CC3CC(CC(C3)C1)C2 (stereo unspecified),-0.9%
Cn1nc(C(=O)N2CCc3c(ncnc3N3CCOCC3)C2)ccc1=O,-0.8%
Cc1nc(N2CCN(C(=O)c3ccc4c(c3)OCO4)CC2)cc(C(F)(F)F)n1,-6.5%
Cc1cccc(CC(=O)N2CCC(Cc3nc(-c4cnccn4)no3)CC2)c1,1.2%
O=C1N2CCCC2CN1C1CCN(Cc2ccccn2)CC1 (stereo unspecified),-0.9%[70.6 µM]
Cn1nc(C2CCN(C(=O)c3ccsc3)CC2)c2c1CCOC2,-0.4%
CN1CCCN(C(=O)NCCc2ccccc2)c2ccccc21,-2.3%
Cc1onc(-c2cnn(C)c2NCCc2ccccc2)c1C(=O)NCc1ccoc1,-5.8%[70.6 µM]
Cc1noc(C)c1Cc1ccc(C(=O)N2CCCCCCNC(=O)CC2)o1,3.9%
Cc1nc(-c2cn(C3CCCN(C(=O)c4cccc(Br)c4)C3)nn2)no1 (stereo unspecified),1.2%
Cc1noc(-c2ccn3c(CNC(=O)Cc4cccc(F)c4)nnc3c2)n1,1.0%
CC(C)c1noc(CC2CCN(C(=O)c3cccc(N(C)C)c3)CC2)n1,-22.5%
Cn1nc2n(c1=O)CCC(N)CC2 (stereo unspecified),0.6%
O[C@@H]1CCN(Cc2nc(C3(O)CCNCC3)cs2)C1,-2.3%[70.6 µM]
CCNC(=O)[C@@H]1C[C@@H](NC(=O)CO)CN1C(=O)CCc1ccc(O)cc1,-0.3%
O=C(NC1CCCC1)C1CCCCC(=O)N1Cc1ccccc1 (stereo unspecified),-19.5%
COCCN1CC2(CCCN(C(=O)c3ccc(C)n(C)c3=O)C2)CCC1=O (stereo unspecified),-0.2%
O=C(NCC(F)(F)F)c1nc2sccn2c1Br,0.0%[70.6 µM]
COc1cccc(CN2CCC3(CC2)CC(c2ccccc2)C(=O)N3C)c1 (stereo unspecified),14.2%
COc1ccc(C(=O)N[C@@H]2CCC[C@@H]2C(=O)NC2CCCCCC2)cn1,-0.9%
CCC(=O)N1CCCN(S(C)(=O)=O)c2ccccc21,-1.5%
O=C(NC1CCCCC1)N1CCc2n[nH]c(=O)n2CC1,5.5%
O=C(C[C@H]1NC(=O)c2ccccc2NC1=O)NCCc1nc2ccccc2[nH]1,6.4%
COCc1nc(NCc2nc(-c3cccnc3)no2)c2cnn(C)c2n1,-1.5%
COc1ccc(N2CCN(c3nc(C(=O)NCc4ccco4)cs3)CC2)cc1,-24.7%

# Additional entries.
SMILES,NPR1 antag
COc1cccc(-c2cc3c(=O)n(CCNC(=O)c4ccc(OC)c(F)c4)ccn3n2)c1,-4.6%
COc1cccc(CC(=O)N2CCCN(S(=O)(=O)c3ccccc3)CCC(=O)NCC2)c1,5.9%
Cc1ccc(-c2cccc(CN3CCCC(c4nc5ccc(F)cc5c(=O)[nH]4)C3)c2)c(C)c1 (stereo unspecified),-5.1%
COc1ccc(C(=O)N2CCCCCCNC(=O)[C@@H]3CCC[C@@H]32)cc1,-2.7%
N#Cc1ccc2nc(CO[C@H]3CN(Cc4ccccc4F)C[C@H]3F)[nH]c2c1,-23.5%[70.6 µM]
COc1ccc(CN2C(=O)O[C@@H]3CN(C(=O)NC4CCCCC4)C[C@@H]32)cc1OC,-6.4%
O=C1NCCCCCCN(C(=O)Cc2ccncc2)[C@@H]2CCC[C@H]12,3.1%
COc1ccccc1C(=O)N1CCC2(CC1)CC(=O)c1ccc(Cl)cc1O2,2.0%
COc1cccc(C2Cn3nnc(-c4nc(-c5ccc(C(C)(C)C)cc5)no4)c3CO2)c1 (stereo unspecified),-13.5%
OCCC1CN(Cc2cc3c(cc2Cl)OCO3)CCN1Cc1ccccc1F (stereo unspecified),3.7%
CCC1CN(Cc2nc(CCOC)no2)CCC(=O)N1Cc1ccccc1 (stereo unspecified),-3.3%
COc1ccc(Cn2c(C3CCN(C(=O)Cc4ccccc4OC)CC3)n[nH]c2=O)cc1,0.0%
COc1ccc2nc3n(c2c1)[C@@H](CNCc1cnc2ccccc2c1)COC3,-14.7%[70.6 µM]
CCOC(=O)C[C@@H]1C[C@@H](C(C)C)[C@H](CNC(=O)c2ccncc2)C=C1C,u
COC(=O)c1c(NC(C)=O)c2cc(NC(C)CCO)cnc2n1CC1CCCO1 (stereo unspecified),-4.0%
COc1ccccc1CN1CCNc2cnc(OCc3cccnc3)cc2C1,-0.9%[70.6 µM]
CN1CC(c2ccccc2)CC2(CCN(C(=O)CCCn3ccnc3)CC2)C1 (stereo unspecified),0.5%
COc1cccc(-c2cc3c(=O)n(CCNC(=O)c4ccccc4Cl)ccn3n2)c1,-19.3%
CC(C)(N)c1cn(CC2CCN(C(=O)NC3CCCCCC3)CC2)nn1,0.1%
CCn1cc(S(=O)(=O)N2CC(N(Cc3cccnc3)CC(C)C)C2)cn1,1.9%
C[C@@]1(O)CCN(C(=O)c2cccc(-c3cccc(F)c3)c2)C[C@@H]1O,5.0%
COCCNC(=O)[C@@H]1C[C@H](Oc2ccccc2)CN1C(=O)Cc1c[nH]c2ccccc12,-0.4%
CC1=C[C@@H](CN(C)CCc2ccccn2)[C@H](C(C)C)C[C@H]1Cc1nnc(-c2ccccc2)o1,-19.2%
O=C(NC1CCCC1)N1CC(Oc2ccccc2-c2nc(-c3ccccc3)no2)C1,-17.8%
O=[S+]1([O-])NC2(CCN(Cc3cccc4ccccc34)CC2)CNc2ccccc21,-10.9%

# More structures
SMILES,NPR1 antag
Cc1cn2nc(C(=O)NC3CCCC3)cc2c(N2CCCC2)n1,6.0%
COc1ccc(C(=O)N[C@@H]2CCC[C@@H]2C(=O)NCCCN(C)C)cn1,-0.4%
Cc1ccc(-c2noc([C@@H]3Cc4nc[nH]c4CN3Cc3ccccc3)n2)cc1,-11.7%[70.6 µM]
Cc1cc(C(=O)NCC23CCCC=C2N(C)C(=O)CC3)n(C)n1 (stereo unspecified),1.2%
COc1ccc(CN(C)C2CCOc3ccccc32)cc1 (stereo unspecified),0.0%[70.6 µM]
CCCNC(=O)NCCc1ncc(C)n1CC1CC1,3.0%
O=C(CC1CCNC1)NC1CC1 (stereo unspecified),0.7%

# Exported tab-delimited: 2 of the compounds above
Molecule	NPR1 antag
Cc1cn2nc(C(=O)NC3CCCC3)cc2c(N2CCCC2)n1	6.0%
COc1ccc(C(=O)N[C@@H]2CCC[C@@H]2C(=O)NCCCN(C)C)cn1	-0.4%
